Assay outcomes (PubChem BioAssay)
GIV-Gai inh = GIV-Galpha-i interaction inhibition. P08753. Galpha-i3/FITC-GIV peptide fluorescence polarization, 90 min; hits give low values; scaled: aluminum fluoride 0%, vehicle 100%. percent of control (FP), % (concentration not given with the values). 210,000 compounds, 0.42% hits. AID 1224905;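 active means replicate mean at 85% of control or lower, very high polarization wells dropped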;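 further: wells of about 15 µL received 100 nL stock; the first replicate is given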
Target sequence (P08753 whole entry, looked up): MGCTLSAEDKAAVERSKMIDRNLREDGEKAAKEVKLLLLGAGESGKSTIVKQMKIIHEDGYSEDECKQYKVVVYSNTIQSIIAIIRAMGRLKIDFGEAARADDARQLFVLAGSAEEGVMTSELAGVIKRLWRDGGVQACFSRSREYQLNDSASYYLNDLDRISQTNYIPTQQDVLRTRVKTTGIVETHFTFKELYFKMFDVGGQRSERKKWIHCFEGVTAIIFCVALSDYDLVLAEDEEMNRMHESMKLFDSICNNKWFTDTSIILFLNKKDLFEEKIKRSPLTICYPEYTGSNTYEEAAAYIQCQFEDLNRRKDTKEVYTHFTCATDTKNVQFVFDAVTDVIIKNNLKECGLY
Sa growth 42C = S. aureus growth inhibition. S. aureus RN4220 growth, OD600, 20 h, 42 °C; hits give low values. relative growth, % (no concentration beside the values). 170,000 compounds, 0.53% hits. AID 720641;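 active means growth at 42 °C up to 50% and 20 or more points under that at 30 °C, or under 10% at both; inconclusive means no clear call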;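 further: 300 nL library stock went into each well; scaled to the means of positive and negative controls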
HCMV NEC inh = inhibitors of HCMV UL50-UL53 nuclear egress complex interaction; HTRF UL50-UL53 interaction, normalized percent inhibition; inhibition, % (test concentration not listed); 190,000 compounds, 0.15% hits; AID 1918969;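 active means both replicates at 50% or more, plus weaker picks with an unusually low signal ratio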;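 further: stock transfer was 100 nL into about 20 µL; 0% = negative control wells and 100% = wells with untagged competitor protein; inactives centre near -12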
Sa growth 42C second temp = further read-out of Sa growth 42C, marked with its call; relative growth, %; measured here: growth at 30 °C;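 optical density after 20 h as mean of two plates; 100% = untreated growth and lower means inhibition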
The depositor's hits bear a star; ? = inconclusive; / = not tested or not shown; & = joins results of further samples. Outcome played no part in choosing rows, and some 0.82% of all compounds hit somewhere here.

SMILES	GIV-Gai inh	Sa growth 42C	Sa growth 42C second temp	HCMV NEC inh
O=C1Cc2ccccc2C(=O)N1Cc1ccccc1	97	/	/	-17
CC1(c2cccs2)CC(c2cccs2)=Nc2ccccc2N1 (stereo not drawn)	110	93	81	/
CCCn1c(=O)n(C)c(=O)c2c(SCC3CCCCO3)nc(CC(C)C)nc21 (stereo not drawn)	/	91	90	-10
COc1cccc(CNC(=O)CN2C(=O)CSc3ccc(S(=O)(=O)N4CCCC4)cc32)c1	106	118	87	/
COc1ccc(CCNC(=O)CCc2cn(Cc3ccc(F)cc3)c3ccccc23)cc1OC	105	152	99	/
N#Cc1ccccc1COc1ncnc2c1cnn2-c1ccccc1	/	66	88	-24
COC(=O)C(C)Sc1nnc(-c2ccc(OC)cc2)n1-c1ccccc1 (stereo not drawn)	/	99	99	14
CCOc1cccc(C2c3c(oc4ccc(F)cc4c3=O)C(=O)N2CCOC)c1 (stereo not drawn)	105	103	93	-17
CCOC(Cc1nnc(SCC(=O)c2ccccc2)n1C)OCC	109	110	99	6
CC1CCCCN1Cc1c(O)ccc2c(=O)c(-c3ccc(Cl)cc3)c(C(F)(F)F)oc12 (stereo not drawn)	109	104	110	-13
O=C(CCc1nc(-c2cccs2)no1)Nc1ccc([N+](=O)[O-])cc1	98	100	83	-30
COC(=O)c1ccc(NC(=O)C2CC(=O)N(Cc3ccc4c(c3)OCO4)C(=Nc3ccccc3)S2)cc1 (stereo not drawn)	98	/	/	-17
CCOc1ccc(N(CC(=O)Nc2ccc(OC)cc2OC)S(=O)(=O)c2ccc(Cl)cc2)cc1	106	/	/	7
Cc1[nH]nc2c1C(c1cccc(F)c1)N(c1ccc(Br)cc1)C2=O (stereo not drawn)	98	/	/	-12
Cc1nc(C2CC2)[nH]c(=O)c1Cl	105	114	94	-2
CCC(C)N1CC(=O)N(c2ccc(C(C)C)cc2)[C@@H]2CS(=O)(=O)C[C@@H]21 (stereo partly drawn)	110	/	/	-29
O=C(CSc1ccccn1)Nc1ccc2ccccc2c1	/	89	71	-58
Cc1ccc(Nc2nncc(=O)[nH]2)cc1Cl	100	/	/	-20
CC(=Nc1c2c(nc3ccccc13)N(C)CC2)N(C)C	103	103	94	/
COc1ccc(C(=O)CSc2n[nH]c(=O)[nH]c2=O)cc1	/	94	97	-59
Cc1ccc(-n2nnnc2CNC(=O)C2CC(=O)N(c3ccccc3)C2)cc1C (stereo not drawn)	97	89	90	/
CCCn1c2ccccc2c2cnn(CC(=O)N(CC)CC)c(=O)c21	108	105	93	-34
CCn1c(=O)c(N2CCC(C(=O)NCCc3c[nH]c4ccc(Cl)cc34)CC2)nc2ccccc21	102	/	/	-18
COc1cc(NC(=O)CN2Cc3ccccc3C2=O)cc(OC)c1OC	106	115	82	/

Some values from above:
Value of `COc1cc(NC(=O)CN2Cc3ccccc3C2=O)cc(OC)c1OC` in Sa growth 42C second temp: 82
Value of `COc1ccc(C(=O)CSc2n[nH]c(=O)[nH]c2=O)cc1` in Sa growth 42C: 94
Value of `Cc1ccc(-n2nnnc2CNC(=O)C2CC(=O)N(c3ccccc3)C2)cc1C` (stereo not drawn) in Sa growth 42C second temp: 90
Value of `CCOc1ccc(N(CC(=O)Nc2ccc(OC)cc2OC)S(=O)(=O)c2ccc(Cl)cc2)cc1` in HCMV NEC inh: 7
Value of `Cc1ccc(Nc2nncc(=O)[nH]2)cc1Cl` in HCMV NEC inh: -20

Other results
SMILES	GIV-Gai inh	Sa growth 42C	Sa growth 42C second temp	HCMV NEC inh
COc1ccccc1OCc1ccc(C(=O)Nc2ccc(C)c(C)c2)o1	98	77	91	/
O=C(Cn1nc2n(Cc3ccccc3)c(=O)c3ccccc3n2c1=O)NCc1ccccc1Cl	100	/	/	-24
N#CC1C(N)=Nn2c(nnc2C(F)(F)F)SC12C(=O)Nc1ccccc12 (stereo not drawn)	/	127	69	-14
C=CCOc1ccc(C(=O)Nc2onc3c2CCCC3)cc1	105	/	/	-10
CCOc1ccc(-c2csc(-c3nc(-c4ccc(Br)s4)cs3)n2)cc1	103	89	83	-20
O=C(NC(=O)C12CC3CC(CC(C3)C1)C2)Nc1ccc(Cl)cc1	107	74	79	-31
O=C(CCc1nnc2n(Cc3ccccc3)c(=O)c3ccccc3n12)NCCCN1CCCCC1	107	90	99	1
COc1cc(C)ccc1OCCSc1nnc(-c2ccc(C)cc2)o1	100	95	91	-6
OC1(C(F)(F)F)CSC(Cc2ccccc2)=N1 (stereo not drawn)	/	96	99	18
CCc1nc(-c2cc(S(=O)(=O)NCC(=O)N3CCN(c4ccc(F)cc4)CC3)c(C)s2)no1	106	/	/	5
O=C1/C(=C\c2ccco2)N2CCC1CC2	100	104	92	5
COc1ccc(N(Cc2cccs2)C(=O)COc2cccc(Cl)c2)cc1	100	100	78	-16
O=C(/C=C/c1cccs1)Nc1ccccc1	99	69	75	-39
COc1cc(NC(=O)Cn2nc(C(F)(F)F)c3c2CCC3)cc(OC)c1OC	107	89	95	5
CC(C)(C)OC(=O)N1CCC(c2c(C(=O)N3CCCCC3)cnn2-c2cccc(F)c2)CC1	107	109	107	/
CSc1nc(NC(=O)C(C)C)c(C#N)n1Cc1ccco1	103	100	94	-1
Cc1ccccc1Nc1nc(N)nc(CN(C)S(=O)(=O)c2cccs2)n1	/	110	95	-5
CCOc1ccc(NC(=O)C2CCCN(c3cnccn3)C2)cc1 (stereo not drawn)	98	90	86	-42
CCOc1ccccc1NC(=O)N1CCCC(c2nnc(SC)n2C)C1 (stereo not drawn)	102	106	83	-19
COc1ccc(CCN2C(=O)CC(C(=O)Nc3ccc(OC)cc3)SC2=Nc2ccccc2)cc1 (stereo not drawn)	104	/	/	-6
CCOC(=O)c1c(-c2ccc(Br)cc2)csc1/N=C/C1C(=O)NC(=S)NC1=O	90	103	83	/
O=C(Cc1ccccn1)NCCO	107	99	98	1
C=CCOC(=O)C1CC=CCC1C(=O)Nc1ccc(NC(C)=O)cc1 (stereo not drawn)	/	92	88	4
O=c1ccc(S(=O)(=O)c2ccc(Br)cc2)n[nH]1	99	/	/	-34

Ordered by the number under GIV-Gai inh (smallest number first): three of the compounds above.
compound,GIV-Gai inh,Sa growth 42C second temp
CCOC(=O)c1c(-c2ccc(Br)cc2)csc1/N=C/C1C(=O)NC(=S)NC1=O,90,83
CCOc1ccc(NC(=O)C2CCCN(c3cnccn3)C2)cc1 (stereo not drawn),98,86
CSc1nc(NC(=O)C(C)C)c(C#N)n1Cc1ccco1,103,94

Additional results follow.
SMILES	GIV-Gai inh	Sa growth 42C	Sa growth 42C second temp	HCMV NEC inh
COc1ccc2sc(N(Cc3cccnc3)C(=O)c3ccc4c(c3)OCCO4)nc2c1	102&100	81	84	/
CCCSc1nc2c(c(=O)[nH]1)C(c1sccc1C)C(C(=O)OC(C)C)=C(C)N2 (stereo not drawn)	97	/	/	-32
O=C(NCCc1csc(-c2cccc(F)c2)n1)c1ccco1	108	83	77	/
O=C(Nc1ccc(S(=O)(=O)N2CCCCC2)cc1)c1cc(=O)c2ccccc2o1	99	84	91	-10
CCCCSCCCNC(=O)CN1C(=O)COc2ccc(S(=O)(=O)N3CCCC3)cc21	104	110	88	-9
CCOC(=O)c1cccc(NC(=O)CCC(=O)N2CC(C)Oc3ccc(C)cc32)c1 (stereo not drawn)	97	81	90	-6
c1ccc2c(c1)nc1n2CCN1CCN1CCOCC1	97	107	91	4
COc1cccc(N2C(=O)c3cc4ccsc4n3CC2(C)C(=O)NCc2ccccc2OC)c1 (stereo not drawn)	108	/	/	-42
CN(CCCC(=O)O)c1nc(-c2ccc(F)cc2)cs1	97	164	103	-36
Cc1cc(CNC(=O)c2cc(F)cc3c2OCOC3)no1	105	92	106	2
CCCCNC(=O)c1[nH]c2ccccc2c1Sc1ccc(C)cc1	101	105	93	-28
CCOC(=O)c1cnc(-c2cccs2)nc1Nc1ccc(Cl)cc1	95	101	91	-21
COC(=O)c1ccc(C)c(NS(=O)(=O)c2ccc3c(c2)c(=O)sn3C)c1	107	0.1*	0.2*	-32
Cc1[nH]c(C(=O)N2CCN(c3ccccc3F)CC2)c(C)c1S(=O)(=O)N1CCCC1	108	/	/	-36
O=C(c1ccccn1)N(Cc1ccco1)C1(C(=O)NC2CCCC2)CCCCC1	98	87	86	-7
COc1cccc(-c2nc3c(c(SCc4ccccc4)n2)Cc2c(CO)cnc(C)c2O3)c1	101	123	106	/
CC(C)C(=O)Nc1ccccc1SCc1cc(=O)n2c(ncn2C(C)C)n1	98	/	/	-12
CCCOC(=O)c1ccc(Nc2nc3ccccc3nc2-n2nc(C)cc2C)cc1	102	119	92	3
COc1ccc(NC(=O)CN(c2ccccc2OC)S(C)(=O)=O)c(OC)c1	103	98	73	-35
CC(C)n1nnc2cc(S(=O)(=O)N3CCCC(C(=O)N4CCc5ccccc54)C3)ccc21 (stereo not drawn)	101	/	/	-6
Cc1ccc(NC(=O)N2CCN(S(=O)(=O)c3cc4c(cc3Cl)NC(=O)C(C)O4)CC2)cc1C (stereo not drawn)	105	/	/	-12
COc1ccc(N(CC(=O)NCc2ccc(Cl)cc2)S(=O)(=O)c2ccccc2[N+](=O)[O-])c(OC)c1	101	/	/	-4
COc1ccccc1NC(=O)N1CCN(c2nc3cc(F)ccc3n3cccc23)CC1	103	/	/	-6
Cn1c(=O)c(C#N)nn(-c2ccccc2)c1=O	/	100	89	-130
Cc1ccc(C(=O)O)cc1Nc1nc2ccccc2n2nnnc12	100	89	90	-5
COc1ccc(-c2ccc(SCC(=O)N3CCC(C)CC3)nn2)cc1	101	105	84	-18
Cc1ccc(S(=O)(=O)Nc2cccc(-c3cn4cccc(C)c4n3)c2)cc1	97&96	?	/	-16
COc1cc(S(=O)(=O)N2CCOCC2)ccc1NC(=O)COC(C)=O	/	98	96	-32
COc1ccc(C2C(C#N)=C(N)Oc3n[nH]c(-c4cc(OC)c(OC)c(OC)c4)c32)c(OC)c1 (stereo not drawn)	108	/	/	-21
COc1ccc2c(c1)c1nc(N(C)C)nc3c1n2CCN3C	102	100	15	/
CC(C)(C)OC(=O)N1CCC(c2c(C(=O)NCCN3CCc4ccccc4C3)cnn2-c2ccc(F)cc2)CC1	106	86	83	/
O=C(Cn1nc2c3ccccc3ncn2c1=O)NC1CCCC1	99	/	/	-20
CCSc1nnc2c(n1)OC1(Nc3ccccc3-2)C(=O)Nc2ccc(Br)cc21 (stereo not drawn)	/	87	49	6
CCCCSc1nnc2[nH]c(=O)cc(C)n12	95	74	91	/
O=C(c1ccc(C23CC4CC(CC(C4)C2)C3)o1)N1CCOCC1	103	101	102	-12
CC(C)Cc1nnc(NC(=O)c2cc(=O)c3cc(F)ccc3o2)s1	100	/	/	-14
O=C(c1sc2ccccc2c1Cl)N1CCN(c2ccc(Cl)cc2[N+](=O)[O-])CC1	101	/	/	-30
CC(=O)Nc1ccc(-c2nc(-c3ccccc3)c3cc(C)ccc3n2)cc1	95	/	/	-3
O=C1C=C(O)c2cccc3cccc1c23	83*	56	26	-115
COc1ccc(CCNC(=O)CN2C(=O)CCS(=O)c3ccccc32)cc1OC (stereo not drawn)	105&97	108	94	4&-18
Cc1ccc(N=C2NC(=O)C(Cc3cccc(C(F)(F)F)c3)S2)cc1 (stereo not drawn)	/	102	85	-11
O=c1c2cc3c(cc2[nH]c(=S)n1C1CCN(Cc2ccccc2)CC1)OCO3	109	106	84	-26
Cc1cccc(OC(=O)CSc2nnc(-c3ccc4c(c3)OCO4)o2)c1C	104	101	85	-18
Cc1cc(C)c2nc(N3CCN(CCO)CC3)cc(C)c2c1	/	99	98	2
CCC(C)NC(=O)c1c[nH]c2ccc(S(=O)(=O)N(CC)c3ccccc3)cc2c1=O (stereo not drawn)	105	107	103	11
O=C(OCC(=O)N1CCCC1=O)c1cccc(-n2cccc2)c1	/	108	71	-8
c1cncc(CSc2nc3ccccc3[nH]2)c1	100	/	/	-8
Cn1c(=O)c2c(nc(SCC(=O)NC(C)(C)C)n2C)n(C)c1=O	98	91	91	/
Cc1ccc(OC(=O)c2cc(-c3ccc4c(c3)OCCO4)on2)c(C)c1	99&97	29	44	-5&-15
O=C(CCc1nnc(C(=O)Nc2ccccc2)s1)NCCCN1CCC(N2CCCCC2)CC1	105	/	/	10
CCCn1cnc2nc(CSc3ccccc3NC(=O)Nc3ccc(F)c(Cl)c3)cc(=O)n21	102	/	/	-17
O=C(Oc1cc(=O)n2c3c(cccc13)CCC2)c1ccccc1	97	112	75	0
CC(C)Cc1nc2ccccc2n1Cc1ccccc1	107	110	84	/
CN1CCCCC1CC(=O)O (stereo not drawn)	102	93	88	-2
Cc1noc(C)c1CSc1ncccc1C(=O)N1CCc2ccccc21	/	73	100	-27
Cc1nnsc1C(=O)N1CCN(c2cc(C(F)(F)F)ccn2)CC1	106	100	97	-8
CN(C)c1ccc(CNC(=O)C2CCN(c3nc4ccccc4[nH]3)CC2)cc1	100	101	83	/
CC(C)=C1C2C=CC1c1ccccc12	103	88	88	-38

Five neighbouring compounds out of the list so far, for reference:
SMILES	GIV-Gai inh	Sa growth 42C	Sa growth 42C second temp	HCMV NEC inh
Cc1ccc(OC(=O)c2cc(-c3ccc4c(c3)OCCO4)on2)c(C)c1	99&97	29	44	-5&-15
O=C(CCc1nnc(C(=O)Nc2ccccc2)s1)NCCCN1CCC(N2CCCCC2)CC1	105	/	/	10
CCCn1cnc2nc(CSc3ccccc3NC(=O)Nc3ccc(F)c(Cl)c3)cc(=O)n21	102	/	/	-17
O=C(Oc1cc(=O)n2c3c(cccc13)CCC2)c1ccccc1	97	112	75	0
CC(C)Cc1nc2ccccc2n1Cc1ccccc1	107	110	84	/
